Screens (PubChem)
Mtb H37Rv: Mycobacterium tuberculosis H37Rv growth inhibition, putative kinase inhibitor library, confirmatory dose response (AID 2842); M. tuberculosis H37Rv growth inhibition; higher % means a stronger effect; some inactives read as strong as hits; hit rate 5.2% among 24,000; one-dose inhibition, % at 10 µg/mL; IC90 in µg/mL for titrated hits;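 active = confirmed in a dose series; inconclusive = mostly over 85% at the one dose but not retested; inactive = below 85% or not confirmed; about a fifth of its hits are not listed in these tables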;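 also: bacteria incubated one week before Alamar blue readout; 0% = bacteria only wells and 100% = bacteria with high antibiotic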
An asterisk follows results filed as active; ? = inconclusive. Not all compounds are listed (hit frequency here may not be typical).

SMILES | Mtb H37Rv
CC(C)(C)c1ccc(C(=O)NC(=S)Nc2ccc(S(=O)(=O)N3CCCCC3)cc2)cc1 | 5%
Cc1ccnc(SCc2cc(=O)c(OC(=O)Cc3ccc(F)cc3)co2)n1 | -8%
COc1ccc(-n2c(=O)[nH]c3c(C(N)=O)nc(-c4cccc(F)c4)nc32)cc1 | 4%
O=C1C2C3c4ccccc4C(c4ccccc43)C2C(=O)N1c1cccc([N+](=O)[O-])c1 (stereo not drawn) | 14%
COc1ccc(-c2nnc(NC(=O)C3CC3)o2)cc1 | 1.1µg/mL*
Cc1ccc(NC(=O)CSc2nnc3ccc(-c4ccncc4)nn23)cc1 | 1%
COCC(=O)Nc1c(C(=O)Nc2ccc3c(c2)OCO3)oc2ccccc12 | -3%
COc1ccc(NC(=O)Nc2ccc(N3CCOCC3)cc2)cc1 | 1%
CCOC(=O)c1cc([N+](=O)[O-])sc1NC(=O)c1ccc(S(=O)(=O)N2CC(C)CC(C)C2)cc1 (stereo not drawn) | -12%
CCCCC(=O)Nc1nc(-c2ccccc2)c(C(C)=O)s1 | 14µg/mL*
O=c1[nH]cc(S(=O)(=O)NCc2ccccc2)c(=O)[nH]1 | -7%
Cc1cc(=O)[nH]c(SCc2ccc(C(=O)Nc3nccs3)cc2)n1 | -17%
Cc1cc(C)cc(NC(=O)C(=O)Nc2cc3c4c(c2)CCC(=O)N4CCC3)c1 | 11%
CC(O)CSc1nc2c(c(=O)n(C)c(=O)n2C)n1CCCc1ccccc1 (stereo not drawn) | 8%
Cn1c(=O)c2c(nc(NCc3ccccc3)n2CC(=O)N=Nc2c(O)[nH]c3ccccc23)n(C)c1=O | -4%
CCOc1ccc2c(c1)SC(CC(=O)Nc1sc(C)cc1C(=O)OC)C(=O)N2 (stereo not drawn) | -10%
Cc1ccc(NC(=O)CSc2nnc3[nH]c(=O)c(C)c(C)n23)cc1Cl | -21%
CCOC(=O)c1ccc(NC(=O)CSc2ncnc3c2nnn3-c2ccc(F)cc2)cc1 | -2%
CCCC(=O)Nc1nc2ccc(C(=O)OC)cc2s1 | 9%
O=C1N/C(=N\N=C\c2ccccc2Cl)SC1Cc1ccccc1 (stereo not drawn) | -1%
Cc1ccc(C)c2[nH]c(=O)c(CCNC(=O)c3cccc(C(F)(F)F)c3)cc12 | 8%
Cc1cc(C)cc(NC(=O)CSc2ncc(S(=O)(=O)c3ccc(Cl)cc3)c(=O)[nH]2)c1 | -20%
CC(C)(C)c1ccc(-n2c(=O)[nH]c3c(C(N)=O)nc(-c4ccccc4)nc32)cc1 | 6%
CCc1cccc(OCC(O)Cn2c(NN)nc3c2c(=O)[nH]c(=O)n3C)c1 (stereo not drawn) | -6%
COc1ccc2cc(CCNC(=O)C(C)(C)C)c(=O)[nH]c2c1 | -6%
Next part:
SMILES | Mtb H37Rv
O=C(Cc1ccc(F)cc1)N(Cc1cccnc1)c1nc2c(F)cccc2s1 | 29%
Cc1cc(C)cc(NC(=O)CSc2nnc(-c3ccncc3)n2N)c1 | 2%
COc1ccccc1NC(=O)CSc1ncnc2c1oc1ccccc12 | 4%
Cc1ccc([N+](=O)[O-])cc1N1C(=O)CC(Sc2ccccc2C(=O)O)C1=O (stereo not drawn) | -14%
O=C(c1ccco1)N(Cc1ccccc1)c1nnc(C23CC4CC(CC(C4)C2)C3)s1 | 15%
Cn1c(=O)c2c(nc(CN3CCN(c4cccc(Cl)c4)CC3)n2Cc2cccc(Cl)c2)n(C)c1=O | -11%
O=C1C(NS(=O)(=O)c2ccccc2)=C/C(=N\S(=O)(=O)c2ccc(F)cc2)c2ccccc21 | -7%
CCOC(=O)c1nn(-c2cccc(F)c2)c(=O)c2c(NC(=O)c3ccco3)scc12 | 6%
Cc1cn2c3c(=O)n(Cc4ccccc4F)c(=O)n(C)c3nc2n1-c1ccc(F)cc1 | 1%
CC1Cc2nc(SCC(=O)N3CCc4ccccc43)n(C)c(=O)c2S1 (stereo not drawn) | 7%
O=C(CSc1nnc(-c2ccncc2)o1)Nc1ccccc1F | -5%
Cc1cccc(-n2ncc3c(NNC(=O)c4cccc([N+](=O)[O-])c4)ncnc32)c1 | ?
COc1ccc(-n2nnc(-c3nc(-c4ccncc4)no3)c2N)cc1OC | -2%
CCS(=O)(=O)c1ccc(CC(=O)Nc2nnc(-c3ccc(C)c(C)c3)o2)cc1 | -8%
Clc1cccc(/C=N/Nc2ncnc3nc[nH]c23)c1 | 22%
Nc1c(C(=O)Nc2nccs2)sc2nc3c(cc12)C(=O)CCC3 | 8%
CC(=O)C1C(c2ccc(F)c(F)c2)NC(=O)NC1(O)C(F)(F)F (stereo not drawn) | -2%
CCOc1cc(C(=O)Nc2nnc(-c3ccccc3)s2)cc(OCC)c1OCC | -6%
CCOc1ccccc1C(=O)Nc1c2c(nn1-c1ccc(C)cc1)CSC2 | 64%
CCCc1nc(SCC(=O)Nc2cccc(Cl)c2)c2c(=O)n(C)c(=O)n(C)c2n1 | -3%
CCOc1ccc2c(c1)c(=O)c(C(=O)c1ccc(OC)cc1)cn2Cc1cccc(F)c1 | 4%
COc1cccc(-n2c(SCC(=O)NCc3ccccc3)nc3c([nH]c4ccccc43)c2=O)c1 | 14%
COc1ccc(CCN2C(=O)C3N=NN(c4ccccc4)C3C2=O)cc1OC (stereo not drawn) | -1%
CCOc1ccc2nc(N3CCc4ccccc4C3)sc2c1 | 83%
O=C(Nc1nc2c(s1)CCCC2)c1ccc(-c2ccccc2)cc1 | 6%
(more compounds)
SMILES | Mtb H37Rv
N#Cc1ccc(-c2csc(NC(=O)c3cc(=O)c4ccccc4o3)n2)cc1 | -10%
Cc1c(OC(C)C(=O)c2ccccc2)ccc2c3c(c(=O)oc12)CCCC3 (stereo not drawn) | 77%
CC(=O)c1cccc(N2C(=O)/C(=C\c3ccco3)SC2=S)c1 | -4%
CC(=O)Nc1nc(SCC(=O)N2CCCc3ccccc32)[nH]c(=O)c1NC(=O)c1ccccc1 | -18%
CS(=O)(=O)c1ccc(CC(=O)Nc2nnc(-c3ccc4c(c3)CCCC4)o2)cc1 | 14µg/mL*
Nc1nc(SCC(=O)NCc2ccc3c(c2)OCO3)[nH]c(=O)c1NC(=O)c1cccs1 | -10%
Cc1nnc(SCCn2c(N3CCN(c4cccc(Cl)c4)CC3)nc3c2c(=O)[nH]c(=O)n3C)s1 | 6%
O=C(Nc1ccccc1F)c1oc2ccccc2c1NC(=O)c1c(F)cccc1Cl | 6%
Cc1ccc(-c2csc(NC(=O)c3ccc(S(=O)(=O)N4CCc5ccccc5C4)cc3)n2)cc1C | 6%
N=C1S/C(=C\c2ccc(-c3cccc(C(=O)O)c3)o2)C(=O)N1c1ccc2c(c1)OCO2 | -4%
CCCc1cc(=O)[nH]c2nnc(SCC(=O)Nc3nc4ccccc4s3)n12 | -2%
Cc1cccc(NC(=O)c2cc3c(=O)n4ccccc4nc3n(CC(C)C)c2=N)c1 | 8%
CN1C(=O)c2cccc(NC(=O)c3cccc(F)c3)c2C1=O | -7%
Cc1ccc(C)c(NC(=O)CS(=O)(=O)c2cn(C)c3ccccc23)c1 | 99%
Nc1c(C(=O)Nc2cccc(F)c2)sc2nc3c(c(-c4ccco4)c12)CCCC3 | 11%
CCOc1ccc(-n2c(=O)[nH]c3c(C(N)=O)nc(-c4ccco4)nc32)cc1 | -10%
Fc1ccc(Cn2cc3c(-c4ccc(Cl)cc4)nnc-3c3cc4c(cc32)OCO4)cc1 | 4%
COc1nn(C)cc1C(=O)Nc1ccc(F)c(F)c1 | 4%
Cc1ccc(NC(=O)CC(C(=O)O)N2CCN(C)CC2)c(C)c1 (stereo not drawn) | 4%
CCc1ccc(NC(=O)Cn2ccc3c(OC)cccc3c2=O)cc1 | -3%
O=C1C(Cl)=C(NCCc2ccccc2)C(=O)N1c1ccccc1 | 2%
O=C(Nc1nnc(-c2ccc(Cl)cc2)o1)c1ccc(Br)cc1 | 3.3µg/mL*
CCOC(=O)c1nn(-c2ccc(F)cc2)c(=O)c2c(NC(=O)c3ccccc3OCC)scc12 | -7%
O=C1C(=O)N(CNc2cccc([N+](=O)[O-])c2)c2ccccc21 | -2%
Cc1cc2cc(CCNC(=O)c3cc(Br)ccc3Cl)c(=O)[nH]c2cc1C | 6%
Next results
SMILES | Mtb H37Rv
Nc1nc(SCC(=O)NCc2cccnc2)nc2sc3c(c12)CCCC3 | 25%
O=c1nc(N/N=C/c2ccccc2)cn[nH]1 | 3%
CCOC(=O)C1=C(c2ccccc2)OC(N)=C(C#N)C1c1ccccc1 (stereo not drawn) | -6%
O=C(Nc1ccc2c(c1)C(=O)NC2=O)c1cccc(N2C(=O)CCC2=O)c1 | -7%
Cc1[nH]c2ccccc2c1C(Nc1ccccn1)c1cccs1 (stereo not drawn) | ?
COc1ccc(/C=C(\C#N)C(=O)NC2CCS(=O)(=O)C2)cc1 (stereo not drawn) | -7%
CCCNC(=O)CSc1nc(N)c(NC(=O)c2ccc(OCC)cc2)c(=O)[nH]1 | -3%
Cc1ccc(-c2nnc(NC(=O)c3ccccc3Cl)o2)c(C)c1 | <0.2µg/mL*
O=C(NCc1n[nH]c(=O)c2ccccc12)NC1CCCCC1 | -9%
Cc1c(C(=O)NCc2nnc(SCC(=O)N3CCC(C)CC3)o2)cccc1[N+](=O)[O-] | -5%
O=C(Cc1cccc2ccccc12)NNc1ncnc2c1cnn2-c1ccc(F)cc1 | 1%
O=C(CSc1ccc2nnc(-c3ccc(F)cc3)n2n1)Nc1ccc(F)cc1 | -15%
Cc1cccc(NC(=O)CC2Nc3cccc4cccc(c34)NC2=O)c1 (stereo not drawn) | 1%
COC(=O)C1CCN(C(c2cccc(F)c2)c2sc3nc(C)nn3c2O)CC1 (stereo not drawn) | -8%
COC(=O)CSc1nc2c(c(=O)n(C)c(=O)n2C)n1CCC(C)C | 4%
Oc1ccc(Cl)cc1Nc1ncnc2ccccc12 | 7%
COc1ccc(-c2nnc3n2N=C(c2ccccc2)CS3)cc1 | 6%
CC1C(=O)N2CCCc3cc(NC(=O)C(=O)NCCC4=CCCCC4)cc1c32 (stereo not drawn) | 6%
O=C(Nc1ccc(OC(F)(F)F)cc1)c1oc2ccccc2c1NC(=O)C1CCCCC1 | 5%
Cc1ccc(NC(=O)CSc2nnc(CCC(=O)O)c(=O)n2N)cc1Cl | 1%
O=C(CSc1nc2ccccc2s1)c1ccccc1 | 15%
CCc1ccc(NC(=O)c2oc3ccccc3c2NC(=O)c2ccc(Br)o2)cc1 | -7%
O=[N+]([O-])c1ccc(S(=O)(=O)NCC(c2cccnc2)N2CCc3ccccc3C2)cc1 (stereo not drawn) | -6%
CCCCC(=O)Nc1ncc(S(=O)(=O)c2ccc([N+](=O)[O-])cc2)s1 | 11%
Oc1ccc2ccccc2c1/C=N/Nc1nn2cnnc2c2ccccc12 | -13%

3 compounds out of the list, ordered by number of heavy atoms, largest number first:
SMILES | Mtb H37Rv
Nc1nc(SCC(=O)NCc2cccnc2)nc2sc3c(c12)CCCC3 | 25%
CCCCC(=O)Nc1ncc(S(=O)(=O)c2ccc([N+](=O)[O-])cc2)s1 | 11%
Cc1[nH]c2ccccc2c1C(Nc1ccccn1)c1cccs1 (stereo not drawn) | ?

(further entries)
SMILES | Mtb H37Rv
COc1ccccc1-c1nnc(SCC(=O)Nc2nccs2)o1 | -7%
c1cncc(CSc2nnc3ccc(-c4ccco4)nn23)c1 | -5%
Fc1cccc(Cn2cc3c(-c4ccccc4)nnc-3c3cc4c(cc32)OCO4)c1 | 7%
Cc1cccc(-c2nnc(NC(=O)c3cccc(Cl)c3)s2)c1 | 18%
O=C(Cc1ccc(Cl)cc1)Nc1c(C(=O)Nc2ccc([N+](=O)[O-])cc2)oc2ccccc12 | 9%
CCc1ccc(S(=O)(=O)Nc2cc3c(C(=O)OC)c(C)oc3c3ccccc23)cc1 | -3%
O=C(CSc1nnc(Cc2cc(=O)[nH]c(=O)[nH]2)n1-c1ccc(F)cc1)Nc1ccc(F)cc1 | -12%
O=C(Nc1nnc(-c2cccs2)o1)c1cc(-c2ccccc2)nc2ccccc12 | 0.53µg/mL*
COC(=O)C1=C(C)NC(=O)NC1c1ccc(Cl)cc1 (stereo not drawn) | 2%
O=C(Nc1nnc(-c2ccc(Br)cc2)s1)c1ccc(S(=O)(=O)N2CCCCC2)cc1 | -5%
NC(=O)CC1SC(N)=NC1=O (stereo not drawn) | -1%
CN(CCCC(=O)Nc1ccncc1)S(=O)(=O)c1ccc2c(c1)C(=O)c1ccccc1C2=O | 84%
COc1ccc(-n2c(=O)[nH]c3c(C(N)=O)nc(-c4cccc(Cl)c4)nc32)cc1OC | -9%

In the list so far, these have a furan ring, fused or not.
SMILES | Mtb H37Rv
COCC(=O)Nc1c(C(=O)Nc2ccc3c(c2)OCO3)oc2ccccc12 | -3%
COc1ccccc1NC(=O)CSc1ncnc2c1oc1ccccc12 | 4%
O=C(c1ccco1)N(Cc1ccccc1)c1nnc(C23CC4CC(CC(C4)C2)C3)s1 | 15%
CCOC(=O)c1nn(-c2cccc(F)c2)c(=O)c2c(NC(=O)c3ccco3)scc12 | 6%
CC(=O)c1cccc(N2C(=O)/C(=C\c3ccco3)SC2=S)c1 | -4%
O=C(Nc1ccccc1F)c1oc2ccccc2c1NC(=O)c1c(F)cccc1Cl | 6%
N=C1S/C(=C\c2ccc(-c3cccc(C(=O)O)c3)o2)C(=O)N1c1ccc2c(c1)OCO2 | -4%
Nc1c(C(=O)Nc2cccc(F)c2)sc2nc3c(c(-c4ccco4)c12)CCCC3 | 11%
CCOc1ccc(-n2c(=O)[nH]c3c(C(N)=O)nc(-c4ccco4)nc32)cc1 | -10%
O=C(Nc1ccc(OC(F)(F)F)cc1)c1oc2ccccc2c1NC(=O)C1CCCCC1 | 5%
CCc1ccc(NC(=O)c2oc3ccccc3c2NC(=O)c2ccc(Br)o2)cc1 | -7%
c1cncc(CSc2nnc3ccc(-c4ccco4)nn23)c1 | -5%
O=C(Cc1ccc(Cl)cc1)Nc1c(C(=O)Nc2ccc([N+](=O)[O-])cc2)oc2ccccc12 | 9%
CCc1ccc(S(=O)(=O)Nc2cc3c(C(=O)OC)c(C)oc3c3ccccc23)cc1 | -3%
